# PrP 5UTR inh = suppresses PrP 5' UTR mRNA reporter expression. cell-based PrP 5' UTR mRNA reporter, plate reader. inhibition, % (test concentration not listed). hit rate 0.35% among 340,000. AID 488862;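 active means every replicate at 50% or more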;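 further: 0 = median of the neutral control wells; tested in H4 reporter cells; numbers are from one replicate; inactives centre near -14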
# RN4220 kill = S. aureus RN4220 growth inhibition. OD600, 16 h. AID 1259311. hit rate 0.33% among 330,000. inhibition, % (concentration not given with the values);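 active means z-score of -3 or lower and OD600 up to 0.18 on both plates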;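 further: plate controls were untreated cells for no effect and reference antibiotic for full effect; stock transfer was 100 nL into about 80 µL; one replicate is shown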
# BJeLR lethal = BJeLR cell viability loss | BJeLR (HRASV12) viability, CellTiter-Glo ATP luminescence, 48 h; reference of the scale not given here | AID 1554 | inhibition, % (no concentration beside the values) | hit rate 0.17% among 300,000;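 active means replicate mean above 50%; inconclusive means above 50% but judged a plate artefact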;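 further: 50 nL library stock added to about 25 µL; numbers are from one replicate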
# ugtP null kill = growth inhibition of S. aureus ugtP deletion strain; S. aureus RN4220 ugtP deletion, OD600 growth, 16 h; some inactives read as strong as hits; growth inhibition, % (test concentration not listed); hit rate 0.54% among 330,000; AID 1259309;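 active means z-score under -3 and OD600 up to 0.15 on both plates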;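 further: plate controls were untreated wells for no effect and antibiotic for full effect; wells of about 80 µL received 100 nL stock; the first replicate is given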
# Autofluor counter = compound fluorescence in toxin protease inhibitor counterscreen | hit rate 3.1% among 360,000 | compound autofluorescence counterscreen, microsphere flow cytometry; hits give high values | AID 624483 | fluorescence intensity (concentration not given with the values);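 active means at least 3 SD above the mean of all compounds, about 16000 in these data; inconclusive means too few beads counted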;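 further: 100 nL of 1 mM stock went into each well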
# Mtb hypoxia inh = inhibitors of hypoxia-regulated fluorescent reporter in Mycobacterium tuberculosis | M. tuberculosis hypoxia-regulated fluorescent reporter, fluorescence | fluorescence inhibition, % (test concentration not listed) | hit rate 0.1% among 300,000 | AID 1159583;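 active means 35 to 45% if threefold the growth effect, above 45% if 1.5-fold the growth effect; inactive means the rest, general growth blockers included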;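 further: wells of about 50 µL received 100 nL stock; 0% = vehicle wells and 100% = reference inhibitor wells; whole bacteria with a GFP reporter of the hypoxia response; strong numbers were not always called active; many hits fall short of the cut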
# Mtb hypoxia inh growth = second read-out of Mtb hypoxia inh, no call of its own (marks repeat the call); growth inhibition, %; measured here: M. tuberculosis growth (absorbance);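 0% = vehicle and 100% = reference antibiotic; read after six days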
# * marks the source's active call; other numbers are inactive results; ? = inconclusive; . = not tested or not shown. The order is random; 3.9% or so of the library scored in one or more.
SMILES	PrP 5UTR inh	RN4220 kill	BJeLR lethal	ugtP null kill	Autofluor counter	Mtb hypoxia inh	Mtb hypoxia inh growth
COc1ccc(-c2cc(=O)oc3cc(OCc4nn[nH]n4)ccc23)cc1	-12	4.3	-12	6	16695*	2	11
CCN1C(=NCc2ccc(OC)cc2)NC(c2ccccc2)C(C(=O)OC)=C1C (stereo not given)	.	3.5	.	4	.	2	4
COC(=O)c1ccc(Cn2cnc3c(Cl)ncnc32)cc1	-23	1.5	.	3	2846	12	9
CCOC(=O)N1CCN(C(=O)c2c[nH]c3ccc(S(=O)(=O)N(C)c4ccccc4C)cc3c2=O)CC1	-22	2.3	6	5	5627	3	6
CC(O)c1nc2ccccc2n1CCCc1ccccc1 (stereo not given)	-26	1.6	1	-1	3843	18	9
Cc1ccc(NC(=O)CN2C(=O)NC(Cc3ccccc3)C2=O)cc1Cl (stereo not given)	-4	3.4	.	-5	5945	1	9
O=C(COc1ccc(Cl)cc1Cl)OCC(=O)N1CCCc2ccccc21	-15	6.6	-2	-2	2215	15	3
Cc1ccc(/C=N/NC(=O)c2ccc3nc[nH]c3c2)s1	-49	.	-1	.	4716	.	.
CC(C)c1cc[n+](-c2nc([O-])sc2C=O)cc1	-16	0.6	-1	-2	2554	.	.
O=C(COC(=O)CN1C(=O)C2CCCCC2C1=O)Nc1ccc(F)c(F)c1F (stereo not given)	-16	8.1	.	0	?	-2	-3
Cc1nc2c(F)c(F)c(C(F)(F)F)c(F)c2[nH]1	1	0.3	2	2	4130	.	.
CC(=O)N(C)Cc1ccc(C(=O)CCl)cc1	-20	12	0	7	4372	13	15
CC(C)CC(N)C(=O)OCc1ccc([N+](=O)[O-])cc1 (stereo not given)	-20	4.3	-10	6	5497	18	10
O=C1NCC(=O)N2CCC[C@@H]12	-21	2.6	-2	5	5988	.	.
O=C(Nc1nc(-c2ccc3c(c2)OCCO3)cs1)c1ccc(S(=O)(=O)N2CCCCC2)cc1	-18	-3.1	12	-12	8542	1	6

# Reprinted from above for reference:
SMILES	PrP 5UTR inh	RN4220 kill	BJeLR lethal	ugtP null kill	Autofluor counter	Mtb hypoxia inh	Mtb hypoxia inh growth
COc1ccc(-c2cc(=O)oc3cc(OCc4nn[nH]n4)ccc23)cc1	-12	4.3	-12	6	16695*	2	11
CCN1C(=NCc2ccc(OC)cc2)NC(c2ccccc2)C(C(=O)OC)=C1C (stereo not given)	.	3.5	.	4	.	2	4

# The results go on:
SMILES	PrP 5UTR inh	RN4220 kill	BJeLR lethal	ugtP null kill	Autofluor counter	Mtb hypoxia inh	Mtb hypoxia inh growth
COc1ccc(-c2nnc(SCC(=O)N3CCCC3=O)n2N)cc1OC	-22	6.8	.	2	3252	-2	-6
Cc1ccc(S(=O)(=O)Nc2cccc3ncccc23)s1	3	68	20	49	3500	-7	14
COc1ccc(C(=O)N2CCCC(C(=O)N3CCN(c4ccccc4)CC3)C2)cc1 (stereo not given)	-23	-2.3	-6	4	.	-10	10
COc1ccc(CN2CCNC(=O)C2CC(=O)N(C)CCCN2CCOCC2)cc1C (stereo not given)	-4	3.4	12	7	6009	13	-1
O=C(CSc1nc2ncccc2[nH]1)c1ccc(F)cc1	-18	6.1	4	4	4258	.	.
Cc1cccc(OC(=O)c2cncc(Br)c2)c1	-24	4.0	-9	-7	2449	7	10
CCOC(=O)Nc1nnc(/C=C/c2ccc(OC)cc2)s1	-27	6.6	0	2	2639	7	6
O=C(NCC(c1ccccc1)N1CCCC1)C1CCN(C(=O)Nc2ccccc2)CC1 (stereo not given)	-17	1.7	.	2	5925	6	5
Cn1ccc2ccc(C3=CC(=O)CC(c4ccc(F)cc4)C3)cc21 (stereo not given)	.	-0.5	.	-17	.	6	9
Cc1cnc(NC(=O)CSc2nnc(COc3ccccc3)o2)s1	-8	1.7	-25	-2	5806	10	16
O=C(CSc1nc2c(c(=O)n1-c1ccc(F)cc1)SCC2)NCc1ccco1	-6	4.8	.	-2	8694	13	13
N#Cc1c(N)nc2c(c1N)CC(=O)N2c1ccc(Cl)cc1	-17	5.9	17	-4	10155	6	2
COc1ccc(S(=O)(=O)N2CCOC23CCN(S(=O)(=O)c2c(C)cc(C)cc2C)CC3)cc1	-19	2.6	12	-3	6389	9	4
CCOC(=O)c1c(NC(=O)COC(=O)Cc2ccccc2[N+](=O)[O-])sc(C(=O)N(C)C)c1C	-5	1.4	-7	-3	6566	7	9
Cc1ccc(N2CC(C(=O)Nc3cc(C)on3)CC2=O)cc1 (stereo not given)	-18	0.3	-3	0	10232	3	7
O=C1c2ccccc2C(Nc2ccc(Cl)cc2)N1CCN1CCOCC1 (stereo not given)	2	-15	-16	-6	5862	-1	-7
Cc1ccccc1N1CC(C(=O)Nc2nnc(SCCC3OCCO3)s2)CC1=O (stereo not given)	-12	3.2	12	-4	5513	-2	-1
Cc1nc2ncnn2c(N2CCN(c3cccc(C(F)(F)F)c3)CC2)c1C	7	3.0	-8	-5	22031*	3	16
O=c1c(C=NCC2CCCO2)c(-c2ccccc2)[nH]n1-c1ccc([N+](=O)[O-])cc1 (stereo not given)	-8	-8.0	-7	3	5289	-1	-2
COc1cc(C=NNC(=O)c2cc(-c3cccn3C)n[nH]2)cc(OC)c1OC	.	51	.	90*	.	.	.
COCCN(CC(=O)Nc1cccc(C)c1C)C(=O)c1ccc2c(c1)OCO2	-15	2.3	.	2	5674	2	6
O=C1C2C(c3ccccc3)C=CC(c3ccccc3)C2C(=O)N1c1ccncc1 (stereo not given)	-11	11	3	17	2515	.	.
COc1cccc(CN(C(=O)Cn2nnc(-c3ccccc3F)n2)C(C(=O)NC(C)(C)C)c2ccncc2)c1 (stereo not given)	-11	0.2	3	2	4581	1	-3
O=C(C(Cc1ccccc1)N1C(=O)c2ccccc2C1=O)N1CCc2ccccc21 (stereo not given)	-4	17	-4	19	2312	16	-1
CCc1nnc(NC(=O)c2ccc(S(=O)(=O)N(C)Cc3ccccc3)cc2)o1	5	23	5	3	4694	5	0
COc1ccc2c(c1)c(C(=O)C(C)N1CCCCC1)c(C)n2C (stereo not given)	-10	3.5	0	4	3601	-4	-2
CC(C)c1nnc(NC(=O)C2CCCN2C(=O)Nc2ccccc2F)s1 (stereo not given)	-5	3.1	-7	-2	4696	13	0
Cc1ccc(C(=O)NC(N2CCCC2)C(Cl)(Cl)Cl)cc1 (stereo not given)	-15	-6.2	5	-2	3927	-8	-3
COC(=O)c1ccc(N=CC2=C(O)CC(c3ccccc3)CC2=O)cc1 (stereo not given)	.	5.1	2	8	.	-1	4
S=C(NC1CCCCC1)N1CCN(Cc2ccccc2Cl)CC1	-55	5.2	21	3	5421	19	22
CCN(CC(=O)Nc1ccccc1C(=O)NC1CC1)Cc1cccs1	-18	4.3	.	2	5501	12	-2
O=C(COc1ccc(Br)cc1)NCC1COc2ccccc2O1 (stereo not given)	-11	-1.2	.	-12	?	4	6
COC(=O)c1cc(C(=O)NC(C)C2CC3CCC2C3)cc([N+](=O)[O-])c1 (stereo not given)	9	0.8	0	9	3824	4	-1
CC(OC(=O)CCC1CCCCC1)C(=O)Nc1ccc(S(N)(=O)=O)cc1 (stereo not given)	-16	3.5	4	15	4393	4	-2
CCN1C(=O)C2C(c3ccc(-c4cccc(Cl)c4)c(OC)c3)N3CCC[C@@]3(C(=O)OC)C2C1=O (stereo not given in full)	.	16	.	-25	.	-2	11
CC(C)CC1CN=C(Nc2ccccc2)N1CCCCc1ccccc1 (stereo not given)	.	2.5	.	-1	.	-9	4
CCOC(=O)C1CCN(C(=O)COc2ccc(N(C)S(=O)(=O)c3ccc(OCC)cc3)cc2)CC1	-14	6.2	1	-7	4168	-6	-9
COc1ccc(-c2csc(NC(=O)CSc3nnnn3C)n2)c(OC)c1	-27	0.8	-4	-4	?	-5	-7
CSCCC1NC(=O)N(CC(=O)N2CCc3ccccc3C2)C1=O (stereo not given)	-7	-0.4	.	-2	3531	-2	6
COC(=O)CC=CC(C)C(C=NOCC(C)C(OCc1ccccc1)C(C)C)NS(=O)(=O)c1ccc(C)cc1 (stereo not given)	.	15	.	21	.	2	2
COc1ccc(CNC(=O)C(=O)NCC2OCCN2S(=O)(=O)c2ccccc2)cc1 (stereo not given)	-4	-0.5	3	0	6225	-2	-1
CCc1nc2ccc(C(=O)N3CCN(c4cccc(C)c4C)CC3)cc2nc1CC	1	-0.4	2	-6	5863	-13	-6
COc1ccccc1C(=O)N/C(=C/c1ccc(Br)cc1)C(=O)N1CCCC1	-14	7.6	10	1	4460	13	12
COc1ccc(C(=O)NCCOc2ccccc2Cl)c(OC)c1OC	-45	-2.2	3	-5	3828	-14	11
O=C(COC(=O)c1n[nH]c2ccccc12)NC(=O)NC12CC3CC(CC(C3)C1)C2	-11	3.5	-1	-12	19573*	2	1
CS(=O)(=O)N1CCN(c2ccc(NC(=O)c3cccnc3Cl)cc2)CC1	-22	1.2	1	5	9406	4	3
Cc1cc(C)n(N=Cc2cc(Cl)cc(Cl)c2O)c(=O)c1	.	7.4	.	-7	.	15	9
CN(Cc1c[nH]c2ccccc12)C1CCCCC1	1	1.7	-2	-3	2556	10	1
O=C(CSc1nc(N2CCOCC2)nc(N2CCOCC2)n1)Nc1ccc([N+](=O)[O-])cc1	-11	-0.7	11	-12	4324	-1	0
Cc1ccc(CCNC(=O)CCS(=O)(=O)Cc2ccc(C)cc2)cc1	-7	0.3	4	-2	3692	-4	6
O=C(Nc1cccc(F)c1)C1CCN(C(=O)NCc2ccccc2)CC1	-16	2.1	-5	-3	5412	1	-2
CNC(=O)c1ccc(NC(=O)CC2SC(N3CCCC3)=NC2=O)cc1 (stereo not given)	3	3.5	.	7	3546	1	2
c1nc(NC2CCCCCC2)c2[nH]cnc2n1	32	4.4	1	2	6928	1	5
O=C1C2C3C=CC(C3)C2C(=O)N1c1ccc2c(c1)CCC2 (stereo not given)	-9	6.6	-2	-7	10841	11	11
CN(CC(=O)Nc1ccc(Cl)c(Cl)c1)C(=O)C1CCC1	-20	3.2	.	-10	3444	18	13
CCOc1ccccc1C(=O)N/N=C/c1c[nH]c2ccccc12	-32	.	2	.	4277	.	.
Cc1noc(C)c1C(=O)OCC(=O)Nc1cccc(S(N)(=O)=O)c1	-10	1.4	-13	8	1946	16	8
CCCCn1c(N)c(N(CC(C)C)C(=O)CSc2nn(-c3ccc(F)cc3)c(=S)s2)c(=O)[nH]c1=O	-12	1.6	.	4	3145	12	9
CCOC(=O)C(N)CSC1CC(=O)N(c2ccc(OCC)cc2)C1=O (stereo not given)	-34	.	-6	.	4798	.	.
O=S(=O)(NC1=NCCCCC1)c1ccc2sc(NS(=O)(=O)c3ccc4ccccc4c3)nc2c1	1	6.5	4	9	4804	7	0

# The results go on:
SMILES	PrP 5UTR inh	RN4220 kill	BJeLR lethal	ugtP null kill	Autofluor counter	Mtb hypoxia inh	Mtb hypoxia inh growth
O=C(NN=C1CCCC1)NC1CCCCC1	-25	7.1	5	1	8373	2	10
CCn1c(C)nc2cc(C(=O)NN=Cc3ccc(OC)cc3)ccc21	.	-0.2	.	-4	.	4	1
COc1ccccc1NS(=O)(=O)c1cccc(C(=O)NN=Cc2ccc3c(c2)OCCO3)c1	.	3.2	.	1	.	6	5
CCCCC(=O)NC(c1ccco1)c1c(O)ccc2ccccc12 (stereo not given)	3	1.9	-2	0	3305	3	7
O=C1CCc2cc(S(=O)(=O)NCc3ccccc3Cl)ccc2N1	-27	2.4	.	0	4035	3	5
CCCC(O)(CCN1CCCCC1)c1ccc(OCC)cc1 (stereo not given)	-10	-1.3	13	6	6065	7	10
Cc1ccnc(NC(=O)CNC(=O)c2ccc(Br)o2)c1	-37	-0.7	4	1	4404	-5	6

# Three compounds from above, arranged by SMILES length, low to high:
SMILES	PrP 5UTR inh	RN4220 kill	BJeLR lethal	ugtP null kill	Autofluor counter	Mtb hypoxia inh	Mtb hypoxia inh growth
O=C(NN=C1CCCC1)NC1CCCCC1	-25	7.1	5	1	8373	2	10
CCCC(O)(CCN1CCCCC1)c1ccc(OCC)cc1 (stereo not given)	-10	-1.3	13	6	6065	7	10
CCCCC(=O)NC(c1ccco1)c1c(O)ccc2ccccc12 (stereo not given)	3	1.9	-2	0	3305	3	7
